# Cruzain Triton – inhibitors of Trypanosoma cruzi cruzain with detergent | P25779 | purified cruzain, Z-FR-AMC fluorescence, 0.01% Triton | Potency, µM, for inactives: max response, negative = inhibition, actives largely listed as inhibitors | hit rate 0.43% among 200,000; active = well fitted curve in the direction sought with a large enough effect; inconclusive = small, poorly fitted or top-dose-only effect, or another doubt; inactive = no such curve, though single readings can be large; an effect the other way counts as inactive or inconclusive;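 also: plate controls were neutral wells for no effect and buffer without enzyme for full effect; nearly all actives have a fitted effect of over 40% in size; top concentration of the series not given in the record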
# Target sequence (P25779 123-467 limits assumed): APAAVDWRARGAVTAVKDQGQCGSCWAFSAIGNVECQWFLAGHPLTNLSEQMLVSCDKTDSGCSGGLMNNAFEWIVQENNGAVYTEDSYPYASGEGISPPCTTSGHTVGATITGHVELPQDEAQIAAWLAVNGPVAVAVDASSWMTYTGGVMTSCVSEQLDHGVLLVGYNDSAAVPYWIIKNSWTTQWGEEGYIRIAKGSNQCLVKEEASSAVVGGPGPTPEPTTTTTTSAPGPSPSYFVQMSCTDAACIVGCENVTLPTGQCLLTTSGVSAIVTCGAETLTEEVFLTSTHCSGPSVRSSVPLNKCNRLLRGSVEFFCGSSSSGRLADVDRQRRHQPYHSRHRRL
#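 Compounds were screened in titration against cruzain (1.5 nM) with 0.01% Triton X-100 to counter colloidal aggregation. Activity was the AMC fluorescence increase over 60 s after adding 2 uM Z-FR-AMC at pH 5.5.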
# Marburg entry inh – Marburg virus entry inhibition; Marburg virus pseudotyped entry inhibition, cell reporter; control for the full effect not named in the record; about a third of the inactives were read at about 46 µM; Potency, µM (highest dose often 37.8 µM), for the others: at the highest dose activity change, negative = inhibition, hits mostly inhibitors; hit rate 1.8% among 300,000; active = well fitted inhibition curve with a large enough effect; inconclusive = small, poorly fitted or top-dose-only effect, or effect the other way; inactive = flat fitted curve, though single readings scatter; tested in HEK293 cells; about a fifth of its hits are not listed in these tables; also: % is scaled to controls: 0 for no effect and ±100 for the full control effect; luciferase read-out
# RE007 growth inh – less growth of the S. pombe RE007 Vpr strain; hit rate 0.21% among 360,000; Potency, µM (highest dose often 92.2 µM), inactives show top-dose activity change, negative = less growth; S. pombe RE007 Vpr strain, BacTiter-Glo ATP luminescence, 24 h; control for the full effect not named in the record; AID 651644; active = well fitted falling curve with a large enough effect; inconclusive = small, poorly fitted or top-dose-only effect; inactive = no such curve, though single readings can be large or run the other way;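 also: % is scaled to controls: 0 for no effect and ±100 for the full control effect; nearly all actives have a fitted effect of over 50% in size; the assay follows cell death caused by Vpr and the record does not say whether a fall means rescue or toxicity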
#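 Fission yeast RE007 carrying one integrated HIV-1 vpr copy, seeded at OD 0.01 in PMG+AL medium with 23 nL pinned compound. Grown 24 h at 30 degrees; viability read by BacTiter-Glo luminescence after 5 min.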
# 2A StopGo – FMDV 2A StopGo reporter, luciferase signal; Potency, µM (doses to about 57.9 µM), inactives show top-dose signal change, negative = less light; hit rate 1.2% among 410,000; human cells with a luciferase reporter of 2A StopGo recoding; control for the full effect not named in the record; active = well fitted falling curve with a large enough effect; inconclusive = small, poorly fitted or top-dose-only effect; inactive = no such curve, though single readings can be large or run the other way; tested in HEK293T cells; also: % is scaled to controls: 0 for no effect and ±100 for the full control effect; nearly all actives have a fitted effect of over 45% in size; luciferase light after 4 h
# NS1 function inh – inhibitors of influenza NS1 protein function. hit rate 0.4% among 270,000. S. cerevisiae slowed by influenza A NS1, growth recovery by OD600. Potency, µM (highest dose often 46.1 µM), for inactives: at the top dose activity, positive = more growth; also: actives are rising curves; nearly all actives have a fitted effect of over 50% in size
#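 Read-out: OD600 growth recovery of NS1-expressing budding yeast. Cells grown overnight at 30C in -URA glucose medium, washed, resuspended and diluted 1:100 in 2% galactose assay medium, pH 6.0. Same strain lacking NS1 served as positive control.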
# Lassa entry inh – Lassa virus entry inhibition; Lassa virus pseudotype entry inhibition, cell reporter; control for the full effect not named in the record; Potency, µM (top dose mostly 37.9 µM), without a hit: at the top dose activity change, negative = inhibition, usual class: inhibitors; hit rate 1.2% among 300,000; active means well fitted inhibition curve with a large enough effect; inconclusive means small, poorly fitted or top-dose-only effect, or effect the other way; inactive means flat fitted curve, though single readings scatter; tested in HEK293 cells; also: % is scaled to controls: 0 for no effect and ±100 for the full control effect; nearly all actives have a fitted effect of over 50% in size; luciferase read-out
# Cruzain noTriton – inhibitors of Trypanosoma cruzi cruzain without detergent | P25779 | purified cruzain, Z-FR-AMC fluorescence, no detergent | Potency, µM, for inactives: max response, negative = inhibition, actives largely listed as inhibitors | hit rate 2.3% among 200,000 | AID 1476; active = well fitted curve in the direction sought with a large enough effect; inconclusive = small, poorly fitted or top-dose-only effect, or another doubt; inactive = no such curve, though single readings can be large; an effect the other way counts as inactive or inconclusive;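 also: plate controls were enzyme without inhibitor for no effect and buffer without enzyme for full effect; nearly all actives have a fitted effect of over 40% in size; top concentration of the series not given in the record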
#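 Detergent-free condition (0.00005% Triton X-100) in acetate buffer pH 5.5 with DTT. 1.5 nM enzyme and compound were pre-mixed 15 min, then 2 uM Z-FR-AMC substrate added; reaction progress from fluorescence change between first and third reads (60 s).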
# SARS PLP yeast – inhibitors of SARS-CoV papain-like protease in yeast | S. cerevisiae expressing SARS-CoV PLpro, growth rescue; control for the full effect not named in the record | Potency, µM (doses to about 32.9 µM), inactives show at the top dose activity, positive = growth rescue | hit rate 0.19% among 330,000; also: 0% is about no effect; nearly all actives have a fitted effect of over 55% in size; growth read by luminescence after 48 h
# * hit, by the source's call; ? = inconclusive; . = not tested or not shown; & = joins results of further samples; [ ] = another dose, or the depositor's remark. Unless noted, calls follow the shape of the dose curve; as a rule, active means well fitted rising curve with a large enough effect; inconclusive means small, poorly fitted or top-dose-only effect; inactive means no such curve, though single readings can be large or run the other way. Potency is read from the fitted curve at half-maximal effect.
SMILES,Cruzain Triton,Marburg entry inh,RE007 growth inh,2A StopGo,NS1 function inh,Lassa entry inh,Cruzain noTriton,SARS PLP yeast
O=[N+]([O-])c1cc(CSC2=NCCN2)ccc1O,.,.,2%,0%,7%,.,.,0%
O=C1NC(=S)NC1=Cc1ccc(O)cc1,.,-5%[46.1 µM],-12%,41%[activator],.,-18%[46.1 µM],.,.
COc1ccc(C(=O)NNC(=O)c2ccc(S(=O)(=O)N3CCOCC3)cc2)cc1,.,13%[46.1 µM],9%,-3%,7%,1%[46.1 µM],.,3%
NC(=O)CC[C@@H]1NC(=O)[C@H](CO)NC(=O)c2cc([N+](=O)[O-])cc(I)c2NCC[C@@H](C(N)=O)NC1=O,-5.9%,0%,5%,-19%,7%,11%,-5%,0%
O=C1C(NS(=O)(=O)c2ccccc2)=C(N2CCN(c3ccc(F)cc3)CC2)C(=O)c2ccccc21,.,.,-10%,-15%,21%,.,.,5%
CC(C)c1ccc(C(O)P(=O)(OC2CCCCC2)OC2CCCCC2)cc1 (centres undefined),.,.,8%,20%,-75%,.,.,0%
CCCCn1nc(C(=O)NC2=NCCS2)c2ccccc2c1=O,-2.0%,-1%,-7%,53%[activator],0%,-8%,-5%,?
O=C(COc1ccccc1F)NCc1nc2ccccc2[nH]1,.,5%[46.1 µM],-4%,1%,.,-17%[46.1 µM],.,6%
O=C(NCCc1ccc(Cl)cc1)C(=O)NCC(c1ccco1)S(=O)(=O)c1ccc(Cl)cc1 (centres undefined),-1.3%,.,.,-38%,.,-20%[46.1 µM],6%,.
CCOc1ccc(/C=C2\SC(N3CCc4ccccc4C3)=NC2=O)cc1,-5.8%,-2%,2%,-12%,3%,-22%,-8%,-12%
Cc1c(Cl)cccc1Nc1sc(C(=O)c2ccccc2)c(N)c1S(=O)(=O)c1ccccc1,-4.7%,?,.,6%,.,?,?,.
COC(=O)/C(=C\C(=O)c1ccccc1)Nc1cccc(C(F)(F)F)c1,-12%,-27%,2%,53%[activator],-9%,19%,-1%,-8%
N#Cc1cn(-c2ccccc2)nc1-c1ccc2c(c1)OCCO2,1.9%,-28%,12%,0%,0%,?,-11%,3%
CN(C)S(=O)(=O)c1ccc2c(c1)N(CC(=O)N1CCCCC1)CCS2,-3.6%,.,.,-7%,.,3%[46.1 µM],-3%,.
CNc1c([N+](=O)[O-])cnn1-c1ccc(Cl)cc1Cl,4.2%,-20%,3%,-19%,0%,-7%,1%,8%
CSCC[C@H](NC(=O)[C@H](Cc1ccccc1)n1c(=O)[nH]c2ccccc2c1=O)C(=O)N1CCC[C@@H]1C(=O)O,.,.,9%,-15%,-3%,.,.,11%
Cc1cccc(NC(=S)NCCC(C)C)c1,-6.0%,1.5µM*,-7%,113%[activator],-25%,?,1%,-11%
O=S(=O)(c1ccc(Cl)cc1)n1c(Cc2ccccc2)nc2ccccc21,-2.6%,?,-14%,6%,-4%,0%,1%,-12%
CCCN(C(=O)COC(=O)CNC(=O)c1ccc2ccccc2c1)c1c(N)n(Cc2ccccc2)c(=O)[nH]c1=O,.,-2%[46.1 µM],-2%,-17%,.,22%,.,-5%
CCOc1ccc(CCNC(=O)CCCc2nnc3n(CC)c(=O)c4sccc4n23)cc1OCC,-0.6%,-23%[46.1 µM],.,-9%,.,2%[46.1 µM],-4%,.
Cc1ccc(NC(=O)C(C)N2C(=O)c3ccccc3C2=O)nc1 (centres undefined),.,1%[46.1 µM],-6%,9%,0%,-16%[46.1 µM],.,-1%
CCCN(CCC)C(=O)C(Cc1ccccc1)NS(=O)(=O)c1ccc2c(c1)c(=O)n(C)c(=O)n2C (centres undefined),-4.5%,10%[46.1 µM],.,8%,.,20%[46.1 µM],-8%,.
CC1=C(C(=O)Nc2cc(C(=O)N3CCC(C)CC3)ccc2C)SCCO1,.,.,7%,-8%,0%,.,.,4%
O=c1[nH]c2ccsc2c(=O)n1-c1ccc(F)c(Cl)c1,-2.5%,4%,3%,6%,-3%,-26%,-9%,2%
Cc1nnc(N2CCN(C(=O)Nc3cc(F)ccc3F)CC2)c2nn(-c3ccc(Cl)cc3)c(C)c12,-1.9%,.,.,?,.,?,-10%,.
CN(CC(=O)N1CCc2ccccc21)S(=O)(=O)c1ccc(Br)s1,-8.1%,-4%,?,5%,-6%,28%,-6%,6%
COc1cccc2c1C(=O)c1c(O)c3c(c(O)c1C2=O)CC(O)(C(=O)CO)CC3OC1CC(N(C)C)C(O)C(C)O1 (centres undefined),.,?,?,-5%,.,?,.,.
CCOc1cccc(C2C(C#N)=C(N)Oc3cc(C)oc(=O)c32)c1OCC (centres undefined),0.4%,1%,0%,6%,1%,-1%,-17%,-5%
CNC(=S)N/N=C(\C)c1ccc(Cl)s1,-10%,1%,-14%,-14%,3%,-1%,-4%,?
CCOC(=O)c1[nH]c2c(c1Cc1ccccc1OC)C(=O)CC(c1ccc(OC)cc1)C2 (centres undefined),-2.7%,?,.,23%,.,-24%[46.1 µM],-3%,.
CCOC(=O)N1CCN(C(=O)COc2ccccc2Cl)CC1,-0.2%,-5%,3%,-6%,6%,-4%,6%,22%
C=CCn1c(SCc2csc(C)n2)nc2sc3c(c2c1=O)CCCC3,4.7%,?,2%,?,12%,5µM*,?,-11%
CN(Cc1ccccc1)S(=O)(=O)c1cccc(C(=O)O)c1,.,2%[46.1 µM],-6%,-3%,.,3%,.,-4%
CCc1ccc(NC(=O)N(C2CCC(C)CC2)C2CCN(C(C)=O)CC2)cc1 (centres undefined),0.4%,28%,-16%,.,-72%,16%,-5%,-9%
CC(C)C(=O)Nc1cccc(-c2cnc3ccccc3n2)c1,-5.5%,?,-15%,52%[activator],-63%,-2%,10%,-6%
Cc1nnc(SCC(=O)N2CCN(c3ccccc3)CC2)n(N)c1=O,.,?,-23%,7%,.,4%[46.1 µM],.,1%
Cc1ccccc1CC(=O)NC1CCCCCC1,.,.,6%,-7%,4%,.,.,1%
Cc1ccccc1CC1(CO)CCCN(C(=O)CCN2CCCO2)C1 (centres undefined),.,.,-9%,33%[activator],8%,.,.,-4%
CCCn1nnnc1SCC(=O)NCc1ccc(OC)cc1,7.6%,-22%[46.1 µM],-18%,4%,-6%,-20%,1%,-2%
CC(=O)Nc1ccc(NC(=O)C(C)OC(=O)CCc2c[nH]c3ccccc23)cc1 (centres undefined),.,?,6%,-7%,.,-33%,.,.
COC(=O)c1[nH]c2cccc(OC)c2c1NC(=O)CCN1CCC(C)CC1,-1.6%,2%,3%,-18%,13%,0%,3%,1%
Cc1ccc(C)c(NC(=O)Cn2cc(C(=O)c3ccc(Cl)cc3)c(=O)c3ccc(C)nc32)c1,-1.5%,.,.,2%,.,17%[46.1 µM],7%,.
COc1cc(NC(=O)Cn2c(=O)ccc3cc(S(=O)(=O)N4CCCC4)ccc32)cc(OC)c1,-5.3%,.,.,?,.,?,8%,.
COc1cccc(CNc2ccc3c(c2)ncn3C)c1OC,-1.2%,0%&0%,-8%,23%&9%,8%,9%,-7%,-9%
Cc1ccccc1OCC(=O)NNC(=O)CCc1ccccc1,.,.,6%,-5%,-2%,.,.,0%
Cc1cc(C)cc(C(=O)Nc2ccc(-c3nc4ncccc4o3)cc2)c1,-3.6%,-5%[46.1 µM],.,0%,.,-10%[46.1 µM],-3%,.
COc1ccccc1/C=C1\Oc2cc(OC(=O)N3CCOCC3)ccc2C1=O,.,.,-3%,25%,1%,.,.,-1%
O=C(COC(=O)c1cc2c(s1)CCCC2)Nc1ccc(Cl)cn1,2.2%,-15%,22%,-8%,-1%,-4%,?,-3%
CCCCOc1ccc(C2/C(=C(/O)c3ccc4c(c3)CC(C)O4)C(=O)C(=O)N2CCCN2CCOCC2)cc1OC (centres undefined),.,-1%,2%,-16%,6%,13%,.,8%
CCOC(=O)/C(C#N)=C/c1ccc(SC)cc1,.,?,14%,48%[activator],.,4%,.,-1%
CC(=O)c1cccc(NS(=O)(=O)c2cc3c(cc2C)NC(=O)CO3)c1,.,-24%[46.1 µM],14%,30%[activator],5%,-10%[46.1 µM],.,0%
COc1ccc(NC(=O)c2nnn(-c3ccc(C(C)C)cc3)c2C)c(OC)c1,-4.1%,0%[46.1 µM],.,-16%,.,-3%[46.1 µM],-8%,.
CCOC(=O)C1CCN(Cc2cc(C(C)C)c(O)c(C(C)C)c2)CC1,.,?,1%,?,-15%,-2%,.,0%
COC(=O)CN(c1ccccc1)S(=O)(=O)c1ccccc1,2.3%,4%,-5%,.,3%,23%,-5%,-1%
CCN1C(=NCCc2ccc([N+](=O)[O-])cc2)N[C@@H](c2ccccc2)[C@H](C(=O)OC)[C@H]1C,.,.,-4%,-12%,-5%,.,.,-1%&1%
COc1ccc(NC(=S)Nc2ccccn2)cc1,.,?,-13%,30%,-10%,?,.,26%
Cc1cc(C)n(-c2ncccc2[N+](=O)[O-])n1,.,2%,-15%,-4%,0%,-3%,.,0%
O=C1OCC/C1=C\OCCCO/C=C1\CCOC1=O,.,.,-3%,3%,0%,.,.,0%
NC(=O)/C(=N\O)c1ccccc1,3.8%,4%&4%,7%,-15%,19%,2%,4%,3%
O=C(CNc1ccc2ccccc2c1)N/N=C/c1ccc(OC(=O)/C=C/c2ccco2)cc1,2.3%,10%,-14%,21%,7%,?,?,4%
# Other entries
SMILES,Cruzain Triton,Marburg entry inh,RE007 growth inh,2A StopGo,NS1 function inh,Lassa entry inh,Cruzain noTriton,SARS PLP yeast
Cc1ccccc1OCC(=O)NCCNC(=O)c1ccccn1,.,0%[46.1 µM],6%,13%,7%,14%,.,-2%
Cc1nc2ccc(S(=O)(=O)NCC(=O)NCc3ccc(Cl)cc3)cc2s1,-3.5%,6%&6%[46.1 µM],15%,-8%&-6%,8%,3%[46.1 µM],6%,?
Cc1onc(-c2ccccc2Cl)c1C(=O)N1C=CC(C(F)(F)F)=NCC1,2.9%,0%,9%,-20%,5%,7%,1%,29%
O=C(c1ccco1)N1CCN(c2ncnc3c2cnn3-c2ccccc2)CC1,-4.3%,?,?,0%,-33%,-21%,0%,-10%
